Beta apoptosis = blocks beta cell apoptosis | INS-1E cytokine-induced death, ATP luminescence, 48 h; percent of positive-control rescue, neutral wells zero | protection from apoptosis, % (test concentration not listed) | 300,000 compounds, 0.8% hits | AID 435005;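 active = all replicates at 75% or more, or half of them and the mean; inconclusive = half reach 75% but not the mean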;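 note: 0% = cytokine-treated negative control wells and 100% = positive control rescue; higher means more ATP so stronger rescue from cytokine killing; wells of about 40 µL received 100 nL stock; the first replicate is given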
Beta2AR agonist = human beta-2 adrenergic receptor agonism by FAP. AID 504454. 340,000 compounds, 0.43% hits. response, % (no concentration beside the values). Am2.2-beta2AR cells, FAP receptor internalization, flow cytometry; reference of the scale not given here. P07550;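 active = response above a set limit, near 3 SD of response in nonfluorescent compounds, cut at about 42% in these data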;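 note: stock transfer was 100 nL into about 11 µL; a reference agonist was the positive control; negative values mostly stem from fluorescent compounds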
ALR inh = blocks human ALR sulfhydryl oxidase activity; purified ALR, DTT oxidation, H2O2 HRP-luminol luminescence; inhibition, % (no concentration beside the values); 290,000 compounds, 3.8% hits; AID 485317;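 active = mean and each replicate at 75% or more; inconclusive = only one of the two met; inactive = neither met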;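 note: stock transfer was 7.5 nL into about 7.5 µL; 0% = neutral wells and 100% = wells with inactivated enzyme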
T cruzi inh = T. cruzi replication inhibition. 300,000 compounds, 1.4% hits. inhibition, % (concentration not given with the values). T. cruzi beta-gal in NIH3T3, luminescence, 90 h. AID 1885;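 active = mean inhibition across valid replicates above about 55%, limit read from the data; inconclusive = mean below that limit but half or more replicates reach it; inactive = mean below it, under half of replicates reach it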;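 note: signal also drops with host cell toxicity which is not excluded here; 0% = plate median of DMSO wells and 100% = zero luminescence signal; higher percent means less beta-gal luminescence so fewer parasites; stock transfer was 50 nL into about 50 µL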
Calb FLC = C. albicans growth modulation with fluconazole; C. albicans CaCi-2 (fluconazole-resistant clinical isolate) + fluconazole, Alamar Blue growth, 48 h; growth inhibition, % (test concentration not listed); 300,000 compounds, 0.57% hits; AID 1979;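 active = most replicates above 75%; inconclusive = exactly half above 75%; inactive = most below 75%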;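 note: all wells also contain fluconazole at 8 µg/ml as a sub-toxic cotreatment; 0% = median of DMSO wells and 100% = median of geldanamycin control wells; wells of about 8 µL received 7.5 nL stock; the first replicate is given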
rRNA inh HTS = selective bacterial rRNA inhibition in E. coli; E. coli WT GFP vs humanized-ribosome RFP mutants, fluorescence, 24 h; active compounds read low; DMSO median 0, no signal -100; GFP signal change (wild-type ribosome), % (concentration not given with the values); 350,000 compounds, 1.6% hits;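 active = significant combined selectivity score with lowered wild-type GFP, culture density cut under 30%, mutant RFP and density less affected; inactive = any of these conditions unmet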; note: one replicate is shown; some compounds called inactive have numbers as strong as hits
A1 inh = inhibitors of the anti-apoptotic protein A1, read as caspase activation | caspase activation, % (no concentration beside the values) | MEF A1-2A-BIM cells, Caspase-Glo 3/7 luminescence, 3 h; percent of clofoctol response, vehicle zero | 330,000 compounds, 0.066% hits;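 active = over half of replicate activation scores above 10%, or exactly half above 10 with the replicate mean above 10; inconclusive = replicate mean below 10 yet half the replicates above 10; inactive = over half of replicates below 10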;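 note: wells of about 30 µL received 50 nL stock; many hits fall short of the cut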
LANA-H2B inh = blocks KSHV LANA binding to histone H2A/H2B | Q9QR71 | cell-free LANA-H2A/H2B peptide, fluorescence polarization | inhibition, % (test concentration not listed) | 320,000 compounds, 0.6% hits; in the data active = inhibition mostly above about 10%, no sharp cut-off; inactive = mostly below about 6.7%;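 note: stock transfer was 7.5 nL into about 10 µL; 0% = median of vehicle wells and 100% = median of positive control wells; one replicate is shown; the record names a cut of 25% in any replicate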
Target sequence (Q9QR71 whole entry, looked up): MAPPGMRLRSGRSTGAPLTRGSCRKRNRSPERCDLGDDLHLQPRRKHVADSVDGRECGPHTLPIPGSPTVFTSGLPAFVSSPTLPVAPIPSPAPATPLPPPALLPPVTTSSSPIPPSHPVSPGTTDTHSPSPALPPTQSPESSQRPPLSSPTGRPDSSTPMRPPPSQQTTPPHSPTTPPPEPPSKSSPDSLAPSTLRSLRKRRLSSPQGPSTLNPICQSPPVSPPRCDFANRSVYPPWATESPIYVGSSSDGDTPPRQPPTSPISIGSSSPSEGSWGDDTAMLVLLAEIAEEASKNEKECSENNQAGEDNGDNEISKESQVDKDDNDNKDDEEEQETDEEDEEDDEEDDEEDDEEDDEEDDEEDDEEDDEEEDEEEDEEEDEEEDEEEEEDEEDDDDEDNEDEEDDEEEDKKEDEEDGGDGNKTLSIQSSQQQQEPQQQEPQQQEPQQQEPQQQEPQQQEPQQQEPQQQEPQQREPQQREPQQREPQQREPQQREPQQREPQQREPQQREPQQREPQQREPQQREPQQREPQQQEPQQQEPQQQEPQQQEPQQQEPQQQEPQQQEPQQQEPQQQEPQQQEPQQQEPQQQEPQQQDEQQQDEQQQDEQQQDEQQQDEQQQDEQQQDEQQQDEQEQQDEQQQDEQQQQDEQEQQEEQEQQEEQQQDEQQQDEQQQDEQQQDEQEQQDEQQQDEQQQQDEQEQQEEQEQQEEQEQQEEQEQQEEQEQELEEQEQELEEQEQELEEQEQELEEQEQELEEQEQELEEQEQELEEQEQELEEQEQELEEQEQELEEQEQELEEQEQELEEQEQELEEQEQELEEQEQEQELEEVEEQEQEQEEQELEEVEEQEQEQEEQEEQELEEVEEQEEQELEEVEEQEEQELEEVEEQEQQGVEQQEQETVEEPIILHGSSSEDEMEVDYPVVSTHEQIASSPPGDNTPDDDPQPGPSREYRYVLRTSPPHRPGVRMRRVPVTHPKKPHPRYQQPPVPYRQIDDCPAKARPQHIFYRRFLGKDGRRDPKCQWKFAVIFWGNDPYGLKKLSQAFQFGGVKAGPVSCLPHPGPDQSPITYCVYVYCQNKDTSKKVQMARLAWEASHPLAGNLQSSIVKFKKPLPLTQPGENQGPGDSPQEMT
rRNA inh HTS OD600 = recorded beside rRNA inh HTS, whose call it bears; OD600 change, %; measured here: OD600 growth;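 optical density of the mix in the first replicate; 0 = DMSO median and -100 = no signal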
rRNA inh HTS RFP = second read-out of rRNA inh HTS, no call of its own (marks repeat the call); RFP signal change, %; measured here: RFP humanized mutant strains;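 first replicate; 0 = DMSO median and -100 = no signal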
* hit, by the source's call; ? = inconclusive; / = no result given. Only part of the results is shown (hit frequency here may not be typical).

Every second line gives: ALR inh	A1 inh	Beta apoptosis	rRNA inh HTS	T cruzi inh	Beta2AR agonist	rRNA inh HTS OD600	rRNA inh HTS RFP	Calb FLC	LANA-H2B inh
1	CC(Oc1ccccc1F)C(=O)NNC(=O)CCS(=O)(=O)c1ccccc1Cl (configuration not stated)
 : 1.3	0.1	/	4.8	2.5	-4.3	12.9	-0.6	8.1	0.5
2	N#Cc1nc(-c2ccccc2F)oc1NCCc1ccccn1
 : 4.0	0.7	2.6	/	-1.8	-6.0	/	/	7.4	-0.7
3	COC(=O)CSc1nc2sc3c(c2c(=O)n1C1CCCCC1)CCN(C)C3
 : 91.9*	-0.6	/	/	50.2	/	/	/	0.4	-4.9
4	CCOc1ccc2nc(C)cc(C(=O)O)c2c1
 : -0.3	0.3	-2.8	1.4	0.9	3.9	4.4	2.9	1.3	1.9
5	Nc1cccc2c1C(=O)N(C(=O)c1cccc(S(=O)(=O)N3CCCCCC3)c1)C2=O
 : 13.6	0.9	-1.9	/	-9.3	8.5	/	/	-3.4	-3.1
6	O=c1c2ccccc2nc2n1CCN2Cc1ccc(Cl)cc1
 : 2.9	0.3	-13.1	-39.6	-16.4	-11.9	-42.9	-8.6	31.4	-0.6
7	Cc1cc(NC(=O)CSc2nnc(-c3ccccc3C)n2C)no1
 : -4.4	0.2	3.2	4.5	/	-1.9	5.9	-1.6	/	-335.8
8	CCc1nn(C(C)C(=O)N2CCN(Cc3ccccc3)CC2)c(=O)c2cc3occc3n12 (configuration not stated)
 : -0.9	0.0	-1.9	/	/	-1.9	/	/	2.6	-2.1
9	Cc1ccc(S(=O)(=O)N2CCN(CCNC(=O)C(=O)Nc3ccc(F)cc3)CC2)cc1
 : 11.2	1.3	-4.0	5.9	3.4	-7.2	13.5	0.5	-17.3	7.3
10	COc1ccc(S(=O)(=O)NC(C)CCc2ccccc2)cc1 (configuration not stated)
 : -9.4	-0.2	3.5	-51.8	1.9	-0.5	-76.6	-30.3	-25.3	1.1
11	Cc1ccccc1/C(N)=N/OC(=O)/C=C/c1ccccc1
 : -3.5	-3.1	3.5	/	23.1	9.4	/	/	?	-0.7
12	O=C(NCc1cccnc1)Nc1cccc(NC(=O)NCc2cccnc2)c1
 : -19.1	-0.8	2.8	/	-7.9	-3.3	/	/	-11.8	-3.0
13	CCN(CC)CCSc1nnc2c3cc(F)ccc3n(Cc3ccccc3)c2n1
 : 34.7	0.5	2.5	0.0	44.0	-3.9	1.9	-2.0	-1.5	-7.5
14	O=C(C1CC1)N1N=C(c2ccncc2)CC1(O)C(F)(F)F (configuration not stated)
 : -4.3	0.2	-5.6	8.6	-4.5	-4.6	7.9	1.5	-9.1	-1.0
15	COc1cc([N+](=O)[O-])ccc1NC(=O)Nn1cnnc1
 : -11.1	-0.3	-3.1	4.4	2.9	3.7	-24.5	2.1	4.2	1.1
16	CC(C)C[C@H](NS(=O)(=O)c1ccc(Br)cc1)C(=O)O
 : -5.8	0.3	-3.0	/	-12.4	5.1	/	/	-12.8	1.7
17	COc1ccc(CCNC(=O)c2cc3c(F)cccc3s2)cc1OC
 : -27.6	-0.1	-3.2	-12.1	-1.5	0.9	-36.8	-1.2	-1.8	-0.6
18	CCN1CCN(Cc2ccc(NC(=O)c3ccc(C)c(NC(=O)c4nccnc4N)c3)cc2C(F)(F)F)CC1
 : -2.0	0.3	10.4	-8.3	19.1	19.3	-8.2	35.5	-8.8	-2.2
19	Cc1ccccc1NC(=O)COc1ccc(Br)cc1CNCCCO
 : /	1.2	-1.6	9.3	-9.0	3.7	4.8	-0.2	-2.3	0.3
20	COc1ccc(CNC(=O)[C@H](C)N2C(=O)N3CCc4c([nH]c5ccccc45)[C@@]3(C)C2=O)cc1OC
 : 6.6	0.1	2.0	0.6	-13.1	-7.0	-0.5	8.6	-3.1	-2.9
21	Cc1cc(=S)c2ccccc2[nH]1
 : -1.6	0.0	-5.7	2.6	7.7	0.4	11.3	9.6	-4.3	-2.9
22	COc1ccc(CCNC(=O)Cn2cnc3c(cnn3C(C)(C)C)c2=O)cc1OC
 : -5.5	0.3	1.8	/	1.4	-8.3	/	/	1.6	1.9
23	CSc1nnnn1-c1ccc(C(=O)OCC(=O)N2CCOCC2)cc1
 : -16.4	-1.3	-1.9	/	-17.7	2.3	/	/	-21.4	-1.8
24	CCN(CC)/C(N)=N/c1nc(C)cc(C)n1
 : /	0.0	1.1	17.4	-10.7	-1.5	5.7	2.4	-1.9	-0.6
25	COc1cc(NC(=O)c2ccccc2-n2cnnn2)cc(OC)c1
 : -46.9	0.4	-2.0	4.5	-1.3	-8.1	2.2	2.6	-4.1	-6.4
26	COc1ccc(CNc2ccccc2SC)cc1OC
 : 57.7	-0.1	-1.6	0.8	-0.7	7.8	1.2	-4.3	5.4	-8.2
27	CCCOc1ccc(C2c3c(oc4cc(C)c(C)cc4c3=O)C(=O)N2CCCN(C)C)cc1 (configuration not stated)
 : -15.8	-0.3	-2.1	5.1	-6.1	-18.3	4.0	6.3	4.4	2.6
28	CC(C)C[C@H](NC(=O)OC(C)(C)C)C(=O)N1CCC(C(=O)N[C@@H](Cc2c[nH]c3ccccc23)C(=O)O)CC1
 : 0.1	0.5	-6.0	13.8	-1.1	-1.4	6.3	3.6	3.1	-0.8
29	Cc1c(C)n(Cc2ccc(Cl)cc2)c2ccc(C(=O)NCCN3CCOCC3)cc12
 : -12.1	-0.6	-6.9	-33.7	9.0	10.5	-51.1	-4.7	4.1	-7.0
30	Cc1ccc(NC(=O)CSc2ccc3nnc(-c4cccnc4)n3n2)cc1
 : -4.8	0.2	-4.8	12.4	0.3	0.8	12.9	0.7	-6.7	2.8

The list goes on:
Every second line gives: ALR inh	A1 inh	Beta apoptosis	rRNA inh HTS	T cruzi inh	Beta2AR agonist	rRNA inh HTS OD600	rRNA inh HTS RFP	Calb FLC	LANA-H2B inh
31	Cc1cc(C)cc(C(=O)NCCN2CCOCC2)c1
 : -5.2	1.1	/	2.4	-12.7	-7.0	6.8	-2.2	20.9	1.2
32	O=C(Nc1nc2ccc(Cl)cc2s1)c1ccco1
 : -3.3	-7.8	11.8	/	-1.1	-5.3	/	/	-15.0	-1.6
33	CCOc1ccc(C(=O)COC(C)=O)cc1
 : /	0.7	/	/	-6.7	2.5	/	/	0.6	-2.3
34	COc1cccc(CCNC(=O)CCc2nnc(-c3cc(C)oc3C)o2)c1
 : 7.1	-0.4	-5.1	-1.3	-14.0	3.1	-2.5	-0.4	-27.3	-1.4
35	Fc1ccc2nc(N3CCCC3)sc2c1
 : -1.6	-6.9	-3.1	-1.0	-8.7	-2.6	-7.6	4.4	-6.7	3.6
36	O=C(c1ccco1)N1CCN=C1SCc1cccnc1
 : 99.0*	0.0	-4.9	/	3.3	-19.7	/	/	-3.8	0.5
37	CCC(=O)Nc1cc2c(cc1C(C)=O)OCCO2
 : -0.1	1.2	-1.0	/	-17.5	0.1	/	/	-5.4	-1.6
38	CCOC(=O)c1c(C)[nH]c(C(=O)COC(=O)CNC(=O)c2ccc(Br)cc2)c1C
 : -1.5	0.7	-2.5	0.7	5.7	-3.2	4.5	1.6	-0.6	-5.1
39	CCOc1c(OC)cccc1C(=O)NCC1(c2ccccc2)CCCC1
 : -6.5	0.2	-3.9	-32.8	10.4	8.7	-56.4	6.8	-2.0	-1.0
40	O=C(NCC1CCCO1)c1ccc(CNS(=O)(=O)c2cccc(Cl)c2)cc1 (configuration not stated)
 : -17.7	0.0	-4.1	8.5	-2.4	1.0	9.9	2.2	-1.8	2.9
41	COC(=O)Cc1nnc(NC(=O)C(C)C)s1
 : 0.8	0.8	/	2.4	-9.1	-3.9	4.4	-1.9	2.1	-7.5
42	O=C(CN1CCOCC1)N/N=C/c1cc2ccccc2nc1Cl
 : 0.6	0.4	-5.4	/	-4.2	-5.8	/	/	3.7	3.2
43	COc1ccc(-c2cn(-c3ccc(C)cc3)c(=O)n2CC(=O)Nc2cccc(F)c2)cc1
 : -9.1	-0.2	-3.6	/	7.9	2.8	/	/	58.6	-4.9
44	Fc1ccccc1CN(CCN1CCOCC1)C(=S)Nc1ccccc1Cl
 : 1.9	-0.4	-2.7	-16.5	1.9	5.5	-30.9	-7.1	6.2	-1.1
45	COc1cccc(-c2ncc3ccccc3c2COC(=O)c2ccc(Br)cc2)c1
 : -5.6	0.3	-1.3	2.9	/	4.1	0.0	-1.1	/	-2.2
46	Cc1cccc(NC(=S)N/N=C/c2ccc([N+](=O)[O-])s2)c1
 : -29.1	-1.7	102.5*	/	51.9	-0.9	/	/	-7.4	-5.9
47	O=C(CCCc1ccccc1)Nc1cccnc1Cl
 : -2.0	0.1	-0.7	-4.8	-8.6	7.8	4.2	-0.7	-1.2	-3.1
48	COc1cccc(-n2nnnc2SCC(=O)NCCc2ccccc2)c1
 : /	-0.2	-0.2	/	2.9	2.2	/	/	13.2	1.7
49	NC(=O)C(=O)NN=C1C2CC3CC(C2)CC1C3
 : 21.6	-0.4	-6.7	/	-5.2	-1.7	/	/	20.2	0.3
50	COc1ccccc1CN1CC(C(=O)N(CCO)Cc2cccs2)CCC1=O (configuration not stated)
 : 5.5	0.2	-3.2	7.7	4.4	-2.7	5.7	-0.9	-0.9	3.4
51	c1ccc(CSCc2nc3ccccc3[nH]2)cc1
 : 16.6	-0.1	1.0	/	5.6	-4.7	/	/	-2.7	-4.5
52	CCc1c(C#N)c(SCCC(=O)Nc2cccc(OC)c2)nc2c1C(=O)CC(C)(C)C2
 : /	-0.1	-6.9	/	27.5	6.2	/	/	14.5	-7.6
53	COc1ccc(-c2sc3ccccc3c2-c2ccc(O)cc2)cc1
 : -4.1	-0.7	8.9	-31.4	/	22.8	-39.9	6.7	/	-0.6
54	O=C(NCC(=O)N1CCN(c2ccccc2O)CC1)C1CCCCC1
 : 0.8	1.1	-1.7	-1.5	-2.3	/	8.6	2.3	0.9	0.1
55	COc1cc(OC)c(/C=N/NC(=O)Cn2nc([N+](=O)[O-])cc2C)c(OC)c1
 : -7.5	-0.4	-3.1	-1.2	12.9	-3.5	31.0	-1.1	-2.3	0.7
56	O=c1c2c(nc3nc(CCc4ccccc4)[nH]n13)CCC2
 : 9.7	0.6	/	/	/	-0.7	/	/	-0.4	4.6

Compound activity (PubChem BioAssay)
